Screening data: PubChem, ICCB-Longwood Screening Facility, Harvard Medical School
MgrA DNA FP: modulators of Staphylococcus aureus MgrA DNA binding; AID 602314; fluorescence polarization; actives 0.13% (n = 84,000); inhibition, %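 (about 10 µg/mL by stock and volumes)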;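 active means above 50% in either of two replicates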;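 further: 0% = protein plus DNA without compound and 100% = DNA alone without protein; higher means less MgrA bound to DNA so lower polarization; one replicate is shown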
S aureus helic: S. aureus DNA helicase inhibition | purified S. aureus helicase, fluorescence unwinding assay; about half of the hits fall short of the stated cut | inhibition, %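 (tested at about 80 µM)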 | actives 0.05% (n = 120,000) | AID 485395;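 active means both duplicates at 50% or more, or one of them with a favoured structure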;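 further: 0% = mean of negative control wells and 100% = mean of positive control wells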
The depositor's hits bear a star; · = not tested or not shown; & = joins results of further samples. Not all compounds are listed, so the mix of outcomes need not match the whole.

SMILES | MgrA DNA FP | S aureus helic
CC(NC(=O)C(=S)N1CCCC1)c1ccccc1 (stereo not drawn) | 2.0 | -13.0
CC1CCCCC1NC(=O)C1CCCN(c2nc3ccccc3o2)C1 (stereo not drawn) | 0.8 | 13.0
CCN(CC)c1ccc(C=C2C(=O)N(C)C(=O)N(C)C2=O)c(OCc2ccc(Cl)cc2Cl)c1 | 9.8 | -143.0
NC(=O)C1CCN(c2cc(C(F)(F)F)ccn2)CC1 | -0.9 | ·
O=C(c1ccco1)N(c1ccccn1)C1CCCCC1 | -1.4 | -6.0
CC(C)C(=O)Nc1scc(-c2ccccc2)c1C(=O)O | -1.8 | 4.0
CCn1cc(/C=C(\NC(=O)c2ccccc2)C(=O)N2CCCC2)c2ccccc21 | 0.7 | -2.0
CC(C)(C)OC(=O)N1CCN(S(=O)(=O)c2ccc(Cl)cc2)CC1 | -2.6 | ·
Cc1ccc(-n2c(C)c(Br)c3c2CCCC3=O)cc1 | · | 2.0
O=C1N=c2ccccc2=C1c1s/c(=N/N=C2\C(=O)Nc3ccccc32)n(-c2ccc(O)cc2)c1O | · | 19.0
c1ccc(-c2nc3ccccn3c2Nc2ccc3c(c2)OCO3)cc1 | 4.4 | 15.0
Cc1nc2c(=O)n(-c3cc(C(F)(F)F)ccc3Cl)nc(C)c2s1 | 1.8 | ·
COc1ccc(CNC(=O)c2cc3ccccc3oc2=O)cc1 | 0.4 | 12.0
CCC1CCCCN1Cc1ccc(CNC(=O)c2cc3ccc4cccnc4c3[nH]2)o1 (stereo not drawn) | · | -17.0
O=C1CC(C(=O)Nc2ccc(Cl)cc2)SC(=Nc2ccccc2)N1 (stereo not drawn) | 2.8 | 24.0&4.0
CC(CN1C(C)CCCC1C)OC(=O)c1ccc(F)cc1 (stereo not drawn) | · | 7.0
CN(CC(=O)N1CCCCCC1)S(=O)(=O)c1cccc2cccnc12 | · | 7.0
CN(C(=O)COC(=O)Cc1c[nH]c2ccccc12)C1CCCCC1 | · | -6.0
C=CC(=O)NCC(c1cccs1)N1CCOCC1 (stereo not drawn) | 0.0 | -20.0
ON(Cc1ccc(Cl)cc1)Cc1ccc(Cl)cc1 | 1.6 | ·
CCOC(=O)CN1CCC(n2nnc3cc(C(F)(F)F)ccc32)CC1 | 0.1 | -22.0
O=C(CC(=O)N1CCCCC1)N1CCCCC1 | 0.3 | -12.0
CCOC(=O)N1CCC(NC(=O)c2cc3c(s2)-c2ccccc2OC3)CC1 | -2.9 | 6.0
CCOC(=O)C1=C(N)OC2=C(C(=O)CC(C)(C)C2)C1c1c(Cl)cccc1Cl (stereo not drawn) | -1.9 | ·
CC(c1ccccc1)n1c(SCC(=O)c2ccc3c(c2)OCCO3)n[nH]c1=O (stereo not drawn) | · | -18.0
O=C1CCCC2=C1C(c1cccc(Br)c1)Nc1ccccc1N2 (stereo not drawn) | 0.7 | 0.0
CCOC(=O)Cc1nc(C)cc(C)n1 | -2.2 | -2.0
CCOC(=O)C1=C(CSCC(=O)OCc2ccc(C#N)cc2)NC(=O)NC1C (stereo not drawn) | · | -1.0
COC(=O)C(C)Sc1nc(N)c(NC(=O)c2ccco2)c(=O)[nH]1 (stereo not drawn) | · | 3.0
Cc1cc(C)c(S(=O)(=O)N(C)CC(=O)NCc2ccco2)c(C)c1 | 0.1 | 18.0
CCOc1ccc(CN(C)C(=O)C2=NNC(=O)CC2)cc1 | · | -5.0
Cc1nnc(SCC(=O)N(c2ccccc2)C(C)C)n(N)c1=O | · | 17.0
C=CCn1c(C)cc(C(=O)COC(=O)C2CCN(C(=O)Nc3ccccc3)CC2)c1C | · | -7.0
CC(=O)/C(N=Nc1ccc(C)cc1[N+](=O)[O-])=C(\C)O | -0.6 | ·
CCCSc1nnc(Nc2ccccc2F)s1 | · | -9.0
CCOc1ccc(N=C2C(=O)N(CN3CCCCC3)c3ccccc32)cc1 | 2.1 | 4.0
CC1Cc2cc(S(=O)(=O)NCc3ccccc3)ccc2N1C(=O)C1CC1 (stereo not drawn) | · | -27.0
CCOc1cc(/C=N/n2c(C)nnc2-n2nc(C)cc2C)cc(Br)c1O | · | 23.0
CCCN1CCc2nc(N3CCOCC3)ncc2C1 | · | 1.0
COc1ccc(C(=O)OCC(=O)N(C2CCCCC2)C2CCS(=O)(=O)C2)c(O)c1 (stereo not drawn) | · | 9.0
CCOC(=O)Cc1csc(SCN2C(=O)c3ccccc3C2=O)n1 | · | 7.0
CSc1cccc(NC(=O)C2CCCN2S(=O)(=O)c2ccccc2)c1 (stereo not drawn) | -1.2 | 5.0
OCC1(CO)CSC(Nc2ccccc2)=N1 | -0.8 | ·
CC(NC=O)c1nc2ccccc2n1C (stereo not drawn) | · | -8.0
O=C1NC(c2c(F)cccc2Cl)Nc2ccccc21 (stereo not drawn) | -1.2 | ·
CC(C)(C)C(=O)Nc1cccc(F)c1C(=O)O | -3.9 | ·
Nc1nnc(COc2ccccc2)s1 | · | 30.0
CN(C)CC#Cc1cccc(/C=N/O)c1 | 1.3 | ·
c1coc(CN=C2NC(=NCc3ccco3)c3ccccc32)c1 | · | -12.0
O=C(CCCn1c2ccccc2c2cn[nH]c(=O)c21)NCc1ccccc1 | · | -25.0

(more compounds)
SMILES | MgrA DNA FP | S aureus helic
COCCNC(=O)c1cccc(NC(=O)C2=C(C)OCCS2)c1 | · | 14.0
Cc1ccc(C(=O)OCC(N)=O)cc1N | · | -23.0
CCCc1[nH]n(-c2ccccc2)c(=O)c1C(C)=NCCOC | 2.0 | -7.0
CSc1ccc(C2C3(C#N)C(N)=NC4(OCCO4)C23C#N)cc1 (stereo not drawn) | · | 38.0
COC(=O)C(Cc1c[nH]c2ccccc12)NC(=O)c1ccccc1Br (stereo not drawn) | -2.6 | ·
Cc1cc2ccccc2c(N=Cc2cc(Br)cc(Br)c2O)c1C#N | 1.3 | ·
Cc1ccc(NS(=O)(=O)c2ccc3[nH]c(=O)sc3c2)cc1F | 0.8 | 9.0
Oc1ccc(-c2cccc(-c3ccc(O)cc3)n2)cc1 | -2.2 | 5.0
Cc1ccc(NC(=O)CN(C)C(=O)C2COc3ccccc3O2)cc1 (stereo not drawn) | · | -5.0
COc1ccc(OC)c(S(=O)(=O)Nc2cc(C(=O)O)ccc2N2CC3CC(C2)c2cccc(=O)n2C3)c1 (stereo not drawn) | · | -10.0
COc1ccc(-c2ccnc(SCC(=O)NC3Cc4ccccc4C3)n2)cc1 | 1.1 | ·
Cc1c(C=Nc2ccc3c(c2)OCCO3)c2ccccc2n1C | -0.6 | -26.0
CC1CCCC(C)N1C(=O)C1CC(c2ccc(F)cc2)=NO1 (stereo not drawn) | -3.9 | 2.0
O=C(OCc1ccccc1)c1cccc(-c2nnn(Cc3ccccc3)n2)c1 | -1.5 | -4.0
C=C1N(C)c2ccc(NC(=O)c3ccccc3)cc2C1(C)C | · | -5.0
CCn1cc(SCC(=O)NCc2ccco2)c2ccccc21 | · | 1.0
C=CCNc1nc(CC(=O)OCC)cs1 | -4.3 | 8.0
CC(=O)N(C)N1c2ccccc2CCc2ccccc21 | · | 38.0
Cc1nc(N)nc(N(C)C)n1 | -2.6 | ·
CN1CCN(Cn2c(=S)oc3cc(S(=O)(=O)Nc4ccccc4Cl)ccc32)CC1 | · | 17.0
CCS(=O)(=O)c1ccc(O)c(NCN2C(=O)S/C(=C\c3ccc(F)cc3)C2=O)c1 | · | 10.0
Cn1c(=O)oc2cc(S(=O)(=O)NCc3ccco3)ccc21 | 0.1 | 18.0
CC(=O)Nc1nc(-c2ccc3c(c2)OCCO3)cs1 | · | -4.0
Cc1noc(C)c1Cc1ccc(C(=O)O)s1 | -5.1 | 8.0
O=S(=O)(Nc1ccc2ccccc2n1)c1cccs1 | 1.5 | ·
CCC(CO)n1c(SCC(=O)Nc2ccc(C)c(C)c2)nc2cc(OC)c(OC)cc2c1=O (stereo not drawn) | · | -4.0
NS(=O)(=O)c1ccc(-n2c(-c3ccncc3)n[nH]c2=S)cc1 | 9.8 | 10.0
CC1CCCC(NC(=O)COC(=O)c2cccc(S(=O)(=O)N(C)C)c2)C1C (stereo not drawn) | · | -3.0
Nc1c(NCCN2CCOCC2)c2ccccc2oc1=O | -0.1 | 7.0
CC(C)c1cc(C(=O)O)no1 | -3.6 | 0.0
CC(C)(C)OC(=O)N1CCC(OCC(=O)O)CC1 | 2.8 | 12.0
c1ccc(-c2noc(CCC3CCCC3)n2)cc1 | 0.7 | 4.0
O=C1C2CC=CCC2C(=O)N1CN1CCN(Cc2ccccc2)CC1 (stereo not drawn) | · | -4.0
CCCCn1nnnc1NCc1ccccc1 | -2.0 | -3.0
CN(C(=O)COC(=O)c1ccccc1Br)C1CCCCC1 | · | 15.0
CC(=O)Oc1c(-c2ccccc2)sc2ccccc12 | 0.1 | ·
CC1=CCC2C(=O)N(C3CCCCC3)C(=O)C2C1 (stereo not drawn) | -5.0 | 9.0
Cc1ccc(C(=O)N2C(C)CCCC2C)c(Cl)c1 (stereo not drawn) | -1.5 | 6.0
CCC(C(=O)Nc1cccc(C)c1C)n1nc(C)c2sc3ccccc3c2c1=O (stereo not drawn) | 1.0 | 9.0
O=C(O)/C=C/c1cccc(Oc2ccccc2)c1 | · | 7.0
Cc1cc(-c2csc(N)n2)ccc1Cl | -1.5 | ·
CCSc1nnc(NC(=O)C2Cc3ccc(C)cc3C(=O)O2)s1 (stereo not drawn) | · | 31.0
CN(NC=C(C#N)C#N)c1cccc(F)c1C#N | · | 0.0
N=c1oc2cc(O)ccc2cc1C(=O)Nc1ccc(F)cc1 | · | 2.0
CCS(=O)(=O)N1Cc2ccccc2CC1C(=O)N1CCN(c2ccccc2)CC1 (stereo not drawn) | · | -6.0
Cc1nn(CCCC(=O)NC2CC2)c(=O)c2cc3sccc3n12 | · | 2.0
Cc1ccc(C)c(Cn2c(CCCO)nc3ccccc32)c1 | · | 30.0
COc1ccc(S(=O)(=O)N2CCN(c3ccc(C(F)(F)F)cc3[N+](=O)[O-])CC2)cc1OC | 0.2 | ·
CCOC(=O)c1ccc(NC(=O)C2CC(=O)N(C)C(=Nc3ccc(C)c(C)c3)S2)cc1 (stereo not drawn) | -0.4 | ·
Cc1cccc(-c2cc3nc4c(c(N5CCN(Cc6ccc7c(c6)OCO7)CC5)n3n2)CCCC4)c1 | -1.1 | 3.0

(further entries)
SMILES | MgrA DNA FP | S aureus helic
Cc1nc(COC(=O)c2ccc(CO)cc2)cs1 | · | -8.0
CCS(=O)(=O)c1nc2ccccc2n1Cc1ccc(C(C)(C)C)cc1 | 4.9 | 4.0
CC(NC(=O)CSc1ncccc1C(=O)O)C1CC2CCC1C2 (stereo not drawn) | · | 2.0
CN(C)C(=S)N(C#N)c1nc(N(C)C)nc(N(C)C)n1 | 2.2 | 10.0
CCC1(CO)CSC(Nc2ccc(Cl)cc2)=N1 (stereo not drawn) | · | 11.0
Cc1ccc(C(=O)OCC(=O)c2ccc(-c3ccccc3)cc2)s1 | 1.6 | -28.0
O=C1CC(c2ccccc2)CC(=O)C1=CN1CCOCC1 (stereo not drawn) | · | -4.0
O=C(CN(CC(=O)NC1CC1)Cc1ccc(Cl)cc1)NC1CC1 | · | 35.0
COCc1cc(=O)[nH]c(/N=C(\N)Nc2ccc(Cl)c(Cl)c2)n1 | 0.6 | ·
N#Cc1cnc(Nc2ccc(F)cc2)nc1N | 3.1 | ·

Molecules shown so far containing a tert-butyl group:
SMILES | MgrA DNA FP | S aureus helic
CC(C)(C)OC(=O)N1CCN(S(=O)(=O)c2ccc(Cl)cc2)CC1 | -2.6 | ·
CC(C)(C)C(=O)Nc1cccc(F)c1C(=O)O | -3.9 | ·
CC(C)(C)OC(=O)N1CCC(OCC(=O)O)CC1 | 2.8 | 12.0
CCS(=O)(=O)c1nc2ccccc2n1Cc1ccc(C(C)(C)C)cc1 | 4.9 | 4.0

The results go on.
SMILES | MgrA DNA FP | S aureus helic
O=C(O/N=C1\CCCc2[nH]c3ccccc3c21)c1cccc(C(F)(F)F)c1 | -1.0 | ·
CC(C)(C)P(=Nc1ccc(S(N)(=O)=O)cc1)(N1CCOCC1)N1CCOCC1 | · | -12.0
CC1(C)Cc2c(sc3nc(=O)n(Cc4ccco4)c(N)c23)CO1 | 0.2 | 10.0
CC(=O)Nc1ccc(SCC(=O)N2CC(C)CC(C)C2)cc1 (stereo not drawn) | · | -1.0
COc1ccc(-c2onc(C)c2C)cc1S(=O)(=O)N(C)C(C)CCc1ccco1 (stereo not drawn) | · | 2.0
O=C(Nn1c(=S)[nH]c2ccccc2c1=O)c1cccnc1 | 1.7 | ·
CC(C)Cc1cc(C(=O)Nc2cnn(Cc3ccc(F)cc3)c2)no1 | · | 13.0
COC(=O)Cn1cc(C(=O)c2ccccc2)c2ccccc21 | -2.0 | 11.0
COc1ccc(C(=O)NCc2nc3ccccc3[nH]2)cc1 | 1.3 | -12.0
O=C(Cn1nnc(N2CCCCC2)n1)c1ccccc1 | -1.6 | ·

A draw from above in order of length of the SMILES, falling.
SMILES | MgrA DNA FP | S aureus helic
COc1ccc(-c2onc(C)c2C)cc1S(=O)(=O)N(C)C(C)CCc1ccco1 (stereo not drawn) | · | 2.0
CC(C)Cc1cc(C(=O)Nc2cnn(Cc3ccc(F)cc3)c2)no1 | · | 13.0
O=C(Nn1c(=S)[nH]c2ccccc2c1=O)c1cccnc1 | 1.7 | ·

The listing continues:
SMILES | MgrA DNA FP | S aureus helic
O=C(CONC1=NCCCCC1)Nc1ccc(OC(F)(F)F)cc1 | · | 8.0
Cc1ccc(NC(=O)c2oc3ccccc3c2C)cc1 | · | 1.0
NC(=O)CSc1nnc(COc2ccccc2Cl)n1C1CC1 | · | -3.0
O=C(Nc1ccccc1)c1cccc(S(=O)(=O)NCC23CC4CC(CC(C4)C2)C3)c1 | -0.9 | 5.0
CCCc1cc(=O)c2c(O)ccc(OC)c2o1 | 0.8 | ·
Cc1cc(C)cc(NC(=O)NCC(O)c2ccccc2)c1 (stereo not drawn) | · | 19.0

Three entries from above, with each value named:
O=C(CONC1=NCCCCC1)Nc1ccc(OC(F)(F)F)cc1
  MgrA DNA FP = ·
  S aureus helic = 8.0

Cc1ccc(NC(=O)c2oc3ccccc3c2C)cc1
  MgrA DNA FP = ·
  S aureus helic = 1.0

NC(=O)CSc1nnc(COc2ccccc2Cl)n1C1CC1
  MgrA DNA FP = ·
  S aureus helic = -3.0
